Screens deposited in PubChem by several laboratories.
HNF4A DNA FP: change in binding of human HNF4A to DNA, primary screen, biochemical, fluorescence polarization, FITC-DNA; Hepatocyte nuclear factor 4-alpha (Homo sapiens), P41235; 1 h; activity change, % at 10 µM; 0.3% of 360,000 active; AID 1224865, 2016; in the data active = activity change above about 30%, passing the limit was not always enough;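 note: controls were the assay level and a saturating level of protein; the project sought stronger binding though the title names inhibitors; some compounds called inactive have numbers as strong as hits; positive values seem to mean higher polarization but the record does not say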
Ecoli growth: E. coli growth inhibition, primary screen, OD600. Escherichia coli growth, 23 h; stronger effect = lower value. OD600 absorbance (no concentration beside the values). 0.21% of 330,000 active. AID 1053175, 2014;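 active = OD600 absorbance below the run mean of sample wells minus 3.6 SD, in any replicate, cut at about 0.56 in these data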;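 note: stock transfer was 300 nL into about 60 µL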
UCH37 DUB inh: inhibitors of human UCH37 deubiquitinase, primary screen, biochemical, Ub-AMC cleavage, fluorescence; Ubiquitin carboxyl-terminal hydrolase isozyme L5 (Homo sapiens), Q9Y5K5; purified proteasome/UCH37; inhibition, % (no concentration beside the values); 0.33% of 330,000 active; AID 588478, 2011;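 active = mean of two replicates above 20%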;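 note: 0% = compound-free wells with enzyme and 100% = wells lacking proteasome; stock transfer was 100 nL into about 20 µL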
Target sequence (Q9Y5K5 whole entry, looked up): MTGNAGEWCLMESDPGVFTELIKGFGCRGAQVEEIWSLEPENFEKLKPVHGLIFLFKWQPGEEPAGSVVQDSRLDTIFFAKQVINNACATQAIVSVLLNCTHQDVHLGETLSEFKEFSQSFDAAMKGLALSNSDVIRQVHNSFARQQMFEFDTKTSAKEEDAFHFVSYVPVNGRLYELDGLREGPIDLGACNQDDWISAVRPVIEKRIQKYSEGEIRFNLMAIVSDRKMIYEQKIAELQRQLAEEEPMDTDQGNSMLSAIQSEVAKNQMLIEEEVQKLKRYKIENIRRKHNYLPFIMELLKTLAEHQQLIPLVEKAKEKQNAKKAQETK
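Material: Human UCH37 enzyme supplied as purified proteasome complex | Schedule: 30 min preincubation with enzyme, 25 min cleavage at room temperature | Detection: AMC fluorescence 355/460 nm | Measure: % inhibition of Ub-AMC cleavage fluorescence | Controls: Wells without proteasome as full block, compound-free enzyme plus substrate as uninhibited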
Vif A3G: inhibitors of Vif binding to APOBEC3G peptide, primary screen, biochemical, TR-FRET, GST-Vif 1-94, biotin-A3G peptide, dose response retest (AID 1117319); Virion infectivity factor (Human immunodeficiency virus type 1 group M subtype B (isolate …; TR-FRET GST-Vif / biotin-A3G peptide binding; higher % means a stronger effect; test concentration not given here; strong numbers were not always called active; one-dose inhibition, %; IC50 in µM for titrated hits; 0.57% of 260,000 active;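 active = above the screen mean plus three standard deviations and confirmed in dose response; inconclusive = results disagree or hit not tested in dose response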;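 note: Vif residues 1-94 fused to GST binding biotinylated APOBEC3G peptide 110-148; 0% = full assay without inhibitor and 100% = GST in place of GST-Vif; retest series ran down from 100 µM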
A1 inh: caspase 3/7 activation in MEF A1-2A-BIM cells, primary screen, A1 inhibitor project, cell-based, luminescence, HTS. AID 2462, 2010. Caspase-Glo 3/7 luminescence, 3 h; percent of clofoctol response, vehicle zero. caspase activation, % (test concentration not listed). 0.066% of 330,000 active;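 active = over half of replicate activation scores above 10%, or exactly half above 10 with the replicate mean above 10; inconclusive = replicate mean below 10 yet half the replicates above 10; inactive = over half of replicates below 10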;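 note: wells of about 30 µL received 50 nL stock; many hits fall short of the cut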
Beta2AR agonist: beta2AR agonists driving receptor internalization, primary screen, cell-based, FAP fluorogen, flow cytometry. Am2.2-beta2AR cells; reference of the scale not given here. response, % (test concentration not listed). 0.43% of 340,000 active;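 active = response above a set limit, near 3 SD of response in nonfluorescent compounds, cut at about 42% in these data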;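 note: stock transfer was 100 nL into about 11 µL; a reference agonist was the positive control; negative values mostly stem from fluorescent compounds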
Target sequence (P07550 whole entry, looked up): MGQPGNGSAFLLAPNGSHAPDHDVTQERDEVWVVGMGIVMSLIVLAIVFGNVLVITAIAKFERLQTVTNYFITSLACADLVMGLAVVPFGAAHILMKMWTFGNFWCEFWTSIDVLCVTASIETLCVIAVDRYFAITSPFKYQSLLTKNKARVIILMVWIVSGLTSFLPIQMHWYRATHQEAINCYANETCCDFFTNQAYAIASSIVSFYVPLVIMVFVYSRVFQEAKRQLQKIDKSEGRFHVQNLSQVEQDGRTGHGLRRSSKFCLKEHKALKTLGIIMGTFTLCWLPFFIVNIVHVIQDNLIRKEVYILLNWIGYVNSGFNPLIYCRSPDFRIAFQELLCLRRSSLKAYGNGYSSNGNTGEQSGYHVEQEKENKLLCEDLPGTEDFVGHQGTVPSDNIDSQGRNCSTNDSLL
LANA-H2B inh: blockers of LANA interaction with H2A/H2B – biochemical, FP readout, HTS, primary screen; Protein LANA1 (Human herpesvirus 8 type P (isolate GK18)), Q9QR71; cell-free LANA-H2A/H2B peptide, fluorescence polarization; inhibition, % (test concentration not listed); 0.6% of 320,000 active; in the data active = inhibition mostly above about 10%, no sharp cut-off; inactive = mostly below about 6.7%;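 note: stock transfer was 7.5 nL into about 10 µL; 0% = median of vehicle wells and 100% = median of positive control wells; one replicate is shown; the record names a cut of 25% in any replicate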
Numbers without * were called inactive; i = inactive; u = inconclusive; x = no result given; & = joins results of further samples.

SMILES	HNF4A DNA FP	Ecoli growth	UCH37 DUB inh	Vif A3G	A1 inh	Beta2AR agonist	LANA-H2B inh
Cc1cc2cc(CNC(=S)NCc3ccccc3)ccc2n1C	-0.9	0.655	2.7	-12.4%	0.6	-4.5	1.9
Cc1cccc(/C=N/c2sc3c(c2C#N)CCN(Cc2ccccc2)C3)c1O	23.0	x	x	4.9%	-0.4	-3.0	0.7
O=C1Cc2cc(S(=O)(=O)Nc3ccc(F)cc3Cl)ccc2N1	-7.2	0.685	3.5	-11.3%	0.6	-5.3	2.0
CCOc1cc2c(cc1OCC)C(c1ccccc1)N(c1ccccc1)C(=O)C2 (stereo unspecified)	0.4	0.694	1.7	-1.5%	3.0	-29.5	0.1
O=c1c(-c2ccc(Br)cc2)coc2c(CN3CCCCC3)c(O)ccc12	-0.8	0.675	-292.0	-4.6%	x	2.3	x
O=C(NC1CCCCC1)C1CCN(S(=O)(=O)c2cccc3nsnc23)CC1	-2.5	0.749	4.0	1.0%	-0.6	0.5	4.3
COC(=O)c1ccc(C)c(NC(=O)CCCN2C(=O)CN(C)C2=O)c1	-0.3	0.667	4.8	-6.8%	-1.0	4.3	2.6
COc1ccc(OCC(=O)Nc2cc3c(cc2C(=O)O)OCCCO3)cc1	-2.6	x	x	6.1%	-1.3	1.6	-1.0
COCCn1cnnc1SCC(=O)Nc1sc2c(c1C#N)CCC2	-2.1	0.641	-0.7	7.7%	-0.1	-2.0	i
CCOc1cc(C(=O)NN2CCOCC2)cc(OCC)c1OCC	-0.9	0.654	2.5	x	-0.3	23.1	-1.9
CCCCOc1ccc(C(=O)Nc2ccc(S(=O)(=O)Nc3cc(C)on3)cc2)cc1OC	0.4	0.694	6.4	-12.7%	0.1	11.2	2.6
COc1ccc(OCc2cc(C(=O)NC(C)Cn3cncn3)no2)c(Cl)c1 (stereo unspecified)	-0.6	0.648	-0.1	x	-1.9	3.0	-0.9
O=C(COc1ccccc1)N1CCN(C(=O)COc2ccccc2)CC1	0.9	0.683	1.4	-5.0%	-0.2	10.2	3.1
COc1ccc(CNC(=O)C2CCCN(c3nn4c(=O)cc(C)nc4s3)C2)cc1 (stereo unspecified)	-1.7	0.7	4.9	x	0.3	-0.2	5.9
O=C(CSc1nnc(-c2ccc(F)cc2)o1)Nc1ccc(S(=O)(=O)N2CCCC2)cc1	0.1	0.684	4.2	67.8%&3.7%	0.9	-2.3	5.2
Cc1cccc(NC(=S)NCCO)c1C	-1.9	0.695	0.9	3.2%	0.1	-4.8	-4.2
Cc1sc(-n2c(C)cc(/C=C3\SC(=S)NC3=O)c2C)c(C#N)c1C	66.9*	0.66	5.3	17.4%	2.9	-6.4	-0.6
Cc1cc(C)cc(-n2c(C)cc(/C=N/NC(=O)c3cccc([N+](=O)[O-])c3C)c2C)c1	-4.9	x	x	0.6%	0.1	0.3	0.5
CCOc1cc(/C=C(\C#N)c2nc(-c3cccs3)c(NC(C)=O)s2)ccc1O	106.2	0.726	3.6	1.1%	0.6	-8.7	-4.6
O=C(CNC(=O)c1ccccc1F)NC1CC1	-1.8	0.748	-1.0	-10.4%	0.0	-8.1	-2.8
O=C(CSc1ccccn1)Nc1ccc(Cl)c([N+](=O)[O-])c1	2.6	0.688	1.8	-10.4%	1.9	-2.5	-1.3
Cc1ccc(-c2csc3ncnc(OCC(=O)NC(=O)NCc4ccco4)c23)cc1	-3.6	0.698	3.5	19.6%	0.1	0.8	-0.8
COc1ccc(OC)c(NC(=O)NNC(=O)COc2ccc(F)cc2F)c1	-1.3	0.654	3.0	x	-0.6	-11.1	-1.6
COc1ccc(NC(=O)CCS(=O)(=O)c2ccc3c(c2)CCCN3C(C)=O)cc1Cl	-5.6	0.686	-0.1	4.6%	0.1	2.1	0.7
O=c1c2ccccc2nc(/C=C/c2cccc([N+](=O)[O-])c2)n1CCO	4.5	x	3.5	6.9%	0.3	-10.5	19.0*
CCOc1ccc(S(=O)(=O)N/N=C(\C)C2CCCCC2)cc1	-1.2	x	x	-1.9%	-0.2	-1.3	-0.8
O=C(O)/C(=C\c1ccc(-c2ccc(F)cc2)o1)c1ccccc1	7.4	0.692	5.9	6.8%	x	9.8	x
CCCCNC(=O)C(c1ccc(OCC(=O)OC)c(C(=O)OC)c1)N(CCc1ccccc1)C(=O)CCCCCN1C(=O)NC(c2ccc(-c3ccccc3)cc2)C(C(=O)OCc2ccccc2)=C1C (stereo unspecified)	x	0.676	-1.4	3.3%	x	x	x
CCOC(=O)CSc1nnc(CNC(=O)c2ccc(OC)cc2)n1-c1ccc(OC)cc1	-0.1	0.666	4.3	u	2.2	19.7	-0.1
Cc1ccc(C)c(S(=O)(=O)N/N=C/c2ccc(F)cc2)c1	-0.5	x	x	-1.9%	0.1	-3.0	6.0
O=C(NC1CCCC1)c1cc2c(ccc3ccccc32)o1	-0.7	0.767	-29.5	0.5%	-5.7	-0.9	-2.7
Cc1cc(C(=O)N/N=C/c2ccco2)n[nH]1	-3.6	x	x	9.0%	-0.5	0.5	-1.2
Cc1ccc(CNC(=O)C2CCCN(Cc3cnn(-c4ccccc4)c3-n3cccc3)C2)cc1 (stereo unspecified)	0.4	0.675	5.7	-5.0%	0.3	-0.7	-0.5
Cc1ccccc1N1C(=O)[C@@H]2Cc3ccccc3CN2C1=O	2.1	0.712	1.7	4.3%	0.3	0.6	1.9
COc1ccc(C(=O)C[n+]2cn(C(F)F)c3ccccc32)c(F)c1	-2.2	0.717	1.8	u	1.9	-13.7	-0.8
O=C(Oc1ccc2cc(Br)ccc2c1)c1cccnc1	-2.0	0.721	-0.3	-2.3%	-0.3	-0.8	0.8
C/C(=N\NC(=O)C(C)Nc1cccc(Cl)c1)c1ccc([N+](=O)[O-])cc1 (stereo unspecified)	2.3	x	x	4.5%	0.8	6.7	-1.9
CCc1ccc2nc(SCC(=O)NCC3CCCO3)c(C#N)cc2c1 (stereo unspecified)	-1.9	0.698	-5.3	-1.7%	0.1	-9.6	0.5
NC(=O)c1ccc(NC(=O)c2ccc(COc3ccccc3Br)cc2)cc1	-3.1	0.711	-0.6	-5.7%	x	10.7	x
O=C(NCc1ccc2c(c1)OCO2)c1cccnc1	1.0	0.706	3.9	25.0%	-0.5	0.4	-6.6
Cc1cccc(C)c1NC(=O)N1CCC(n2c(=O)[nH]c3ccccc32)CC1	4.7	0.69	3.4	4.8%	0.4	7.0	-0.1
CCN(CC)CCNC(=S)N1CCn2c(nc3ccccc32)C1	3.4	0.638	2.4	30.9%	0.2	-13.8	3.2
N#Cc1ccc(-c2cccnc2)nc1SCc1ccc(Cl)c(Cl)c1	1.2	0.785	-47.5	x	x	36.6	x
Cc1ccnc(NC(=O)CCCOc2ccc(Cl)cc2C)c1	x	0.696	3.4	x	0.2	x	-3.3
COc1ccc(-c2cc(C(=O)N3CCN(C(=O)c4ccco4)CC3)[nH]n2)cc1	0.1	0.685	-0.5	x	-0.2	-13.3	1.1
Cc1cc(F)c(F)cc1C(=O)N1CCCC1	-0.1	0.658	2.5	-1.0%	0.0	1.8	-0.1
COC(=O)COc1cccc(NC(=O)c2cccc(C)c2)c1	2.3	0.716	5.1	10.8%	-3.9	-2.1	-3.5
O=C(c1ccc(OC2CCN(CCc3ccccc3)CC2)cc1)N1CCCC(CCCO)C1 (stereo unspecified)	0.7	0.671	2.0	x	0.0	-15.8	2.0
CS(=O)(=O)N(CC(=O)N1CCc2ccccc2C1)c1cccc([N+](=O)[O-])c1	3.2	0.679	1.2	0.6%	0.4	-1.1	-5.2
Cc1cc(C)c(C)c(S(=O)(=O)N2CCN(Cc3nc4ccccc4[nH]3)CC2)c1C	1.7	0.689	2.8	-0.8%	0.5	1.8	-8.1
Cc1cc(C)c(S(=O)(=O)N2CCN(c3ccccc3)CC2)c(C)c1	0.3	0.663	4.1	x	0.0	-7.9	2.1
Cc1cccc(-n2ncc3c(N)ncnc32)c1	-0.6	0.679	1.6	6.1%	0.2	4.2	-6.2
Cc1cc(C)c2nc(/N=C(\N)NC(=O)c3ccccc3)nc(C)c2c1	-0.3	x	x	-27.1%	-1.2	1.2	-9.7
C=CCNc1nc(C(=O)OCC(=O)N(Cc2ccccc2)C(C)C)cs1	-2.6	0.699	1.2	-12.5%	-0.4	4.1	x
CC1(C)CC(=O)C/C(=N/NC(=O)C2CCN(S(=O)(=O)c3cccs3)CC2)C1	0.8	x	x	4.8%	0.7	0.1	-2.0
O=C(/C=C/c1ccccc1Cl)NNC(=O)c1ccncc1	-4.0	0.674	6.2	-7.4%	0.6	-8.3	2.7
CCc1nn2c(=O)c(S(=O)(=O)Nc3ccccc3)c(C)nc2s1	-1.4	0.668	6.2	x	0.2	3.4	-3.5
COC(CN(C)C(=O)C1CCC(CNS(=O)(=O)c2ccccc2)CC1)OC (stereo unspecified)	0.3	0.658	0.0	-5.2%	0.6	1.9	2.9
O=C(Cc1ccc(-c2ccccc2)cc1)NCc1ccccc1	5.1	0.675	-3.2	-18.5%	0.9	34.2	-7.7
CC(=O)N[C@H]1[C@H]([C@H](O)[C@H](O)CO)OC(C(=O)O)=C[C@@H]1O	-2.1	x	1.5	x	-0.4	-0.8	-3.8
More entries:
SMILES	HNF4A DNA FP	Ecoli growth	UCH37 DUB inh	Vif A3G	A1 inh	Beta2AR agonist	LANA-H2B inh
O=C(Nc1ccc([N+](=O)[O-])cc1)Nc1ccon1	-0.3	0.675	2.9	1.7%	-0.7	17.7	-6.6
CN(C)c1ccc(/C=N/n2c(COc3ccccc3)n[nH]c2=S)cc1	-5.4	x	x	-3.7%	0.2	14.4	x
CCOc1ccc(N2C(=O)Nc3ccccc3C2(O)C(=O)NCc2ccco2)cc1 (stereo unspecified)	5.0	0.644	2.2	-10.7%	-0.4	-7.8	5.1
COc1ccccc1C(=O)NCCC(=O)N1CCN(c2ccccc2Cl)CC1	10.8	0.629	1.1	7.9%	-0.7	-8.5	-0.7
Cc1nnc2ccc(-c3cccc(NC(=O)Cc4cccs4)c3)nn12	-3.4	0.625	4.8	u	1.4	-2.4	1.0
C/C(=N\NC(=O)c1cccc(S(=O)(=O)N2CCOCC2)c1)c1ccc(C)cc1	-3.9	x	x	-9.2%	0.1	-1.6	5.9
O=C1c2ccccc2C(=O)N1CCCP(=O)(O)CCc1ccccc1	-1.5	0.777	4.0	8.5%	0.4	-8.1	0.6
O=C(Nc1ccncc1)C1(c2ccccc2)CCCC1	-1.5	0.696	-1.1	-1.6%	-0.7	-5.2	4.0
COc1cc(OC)cc(C(C(=O)NC2CCCCC2)N(C(=O)c2ccno2)c2ccccc2)c1 (stereo unspecified)	-1.4	0.753	1.5	-0.1%	-0.2	1.3	-0.7
Cc1ccc(C)c(N2CCN(C(=O)CN(C)S(=O)(=O)c3ccc4c(c3)CCC(=O)N4)CC2)c1	-3.5	0.754	3.7	2.4%	0.4	5.6	-0.3
Cc1cc(/C=C2/NC(=O)NC2=O)c(C)n1-c1ccc(N2CCOCC2)cc1	-1.4	0.718	10.4	-1.4%	1.0	2.9	-1.0
COc1cc(C=O)ccc1OCCCOc1ccccc1[N+](=O)[O-]	-2.5	0.707	2.8	x	-0.1	6.4	-1.4
